High-throughput results: PubChem BioAssay, ICCB-Longwood Screening Facility, Harvard Medical School
GIV Gai3 FP: GIV-Galpha-i interaction inhibition; Galpha-i3/FITC-GIV peptide fluorescence polarization, 90 min; hits give low values; scaled: aluminum fluoride 0%, vehicle 100%; percent of control (FP), % (test concentration not listed); 0.42% of 210,000 active; AID 1224905;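 active = replicate mean at 85% of control or lower, very high polarization wells dropped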;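 also: wells of about 15 µL received 100 nL stock; the first replicate is given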
Target sequence (P08753 whole entry, looked up): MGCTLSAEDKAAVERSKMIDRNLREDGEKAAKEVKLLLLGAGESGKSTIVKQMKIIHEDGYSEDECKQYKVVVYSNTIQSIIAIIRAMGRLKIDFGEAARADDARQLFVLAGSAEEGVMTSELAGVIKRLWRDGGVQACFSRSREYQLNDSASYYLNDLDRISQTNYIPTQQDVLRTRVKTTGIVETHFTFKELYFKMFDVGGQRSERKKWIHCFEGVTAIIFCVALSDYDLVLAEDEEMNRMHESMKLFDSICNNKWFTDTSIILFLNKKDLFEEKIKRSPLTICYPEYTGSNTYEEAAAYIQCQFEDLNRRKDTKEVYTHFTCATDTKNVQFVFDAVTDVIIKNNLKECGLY
Numbers without * were called inactive. A portion of the library (hit frequency here may not be typical).

GIV Gai3 FP	Structure
105	CC(C)CC(=O)N1CCCC1c1cc(C(C)C)on1 (centres undefined)
103	Oc1ccc(Br)cc1-c1nc2c3ccccc3c3ccccc3c2[nH]1
107	COc1ccc(CNC(=O)C2(C)Cc3ccccc3C(=O)N2Cc2cccc(Cl)c2)cc1 (centres undefined)
104	CC(=O)N1CCc2cc(Br)c(S(=O)(=O)N3CCCC3c3cc(C)on3)cc21 (centres undefined)
104	CCOc1ccccc1-n1c(=S)sc2c(=O)[nH]c(SCC(=O)N(CC)CC)nc21
110	CC1(C)CC(=O)c2cc3c(N)c(C(=O)Nc4ccc(Br)cc4)sc3nc2C1
110	Cc1noc(C)c1C1CCCN1Cc1cc(Cl)ccc1O (centres undefined)
100	CCc1cc(-c2csc(S(=O)(=O)N3CCN(c4ccc(Cl)cc4)CC3)c2)on1
110	CCOC(=O)c1c(C)oc2ccc(N(C(C)=O)S(=O)(=O)c3ccc(C)cc3)cc12
107	O=c1n(Cc2ccc(Cl)cc2)nc2c(S(=O)(=O)N3CCCC3)cccn12
102	CCn1nnc2c(NCCCN3CCOCC3)ncnc21
98	CN(C)c1cc(OC2CCN(C(=O)c3ccsc3)C2)ncn1 (centres undefined)
106	CCc1nc(-c2csc(S(=O)(=O)N3CCc4ccccc4C3)c2)no1
102	Cc1sc2nc(-c3ccccc3)oc(=O)c2c1C
100	O=C(Nc1ccc2c(c1)OCO2)c1nnc(C2CCN(S(=O)(=O)c3ccc(F)cc3F)CC2)s1
112	O=C(CSCC(=O)N1CCCc2ccccc21)Nc1ccccc1
99	CCCCN(C)C(=O)c1cc(NC(=O)CCC)cnc1N1CCNCC1
101	Cn1c(=O)c2ccn(CC(=O)N3CCCC3)c2n(C)c1=O
197	CCN(CC)c1ccc2cc(-c3nc(-c4ccc(Br)cc4)cs3)c(=Nc3ccccc3C)oc2c1
112	O=C(CSc1nc2ccccc2c(=O)n1NC(=O)Cc1ccccc1)NCc1ccccc1Cl
130	O=C1N=C(N2CCN(c3ccccc3)CC2)S/C1=C\c1ccco1
108	COc1cc(NC(=O)N2CCCC2c2cc(C)on2)cc(OC)c1OC (centres undefined)
108	O=c1c2ccccc2nc(CSc2nccn2Cc2ccccc2)n1-c1ccccc1Cl
98	Cc1noc2nc(CCC(=O)NCCCN3CCCC3=O)nc(N3CCCCC3)c12
114	COC(=O)c1cc(NC(=O)CSc2nc3[nH]ncc3c(=O)n2-c2ccccc2)cc(C(=O)OC)c1
100	Cc1ccc(-c2nc3nc(-c4ccc(Cl)cc4Cl)cn3nc2-c2ccc(C)cc2)cc1
122	CC1=CCC2C(=O)N(c3cccc(C(=O)OCC(=O)c4ccc(Cl)cc4)c3)C(=O)C2C1 (centres undefined)
108	CCOC(=O)c1[nH]c(C)c(CN(CC2CCCO2)C(=O)C(CC)CC)c1C (centres undefined)
102	COc1ccc(CCn2c(-c3ccc(C4CCCCC4)cc3)csc2=Nc2cccc(C(F)(F)F)c2)cc1
104	Cc1cc(C)cc(NC(=O)c2cn(-c3cc(-c4noc(C5CC5)n4)ccc3C)nc2C)c1
103	Cc1nn(-c2nc3ccccc3o2)c2c1C(c1cc(F)cc(F)c1)CC(=O)N2 (centres undefined)
96	Cc1cc(C(=O)N2CCCN(C)CC2)c(C)n1CCN1CCCCC1
116	COc1ccccc1-n1c(CNC(=O)c2ccc(S(=O)(=O)N(C)C)cc2)nnc1SCC(=O)Nc1ccc(F)cc1
106	COc1cccc(C2=Nc3cccnc3N(CC(=O)Nc3ccc(F)cc3Cl)C(=O)C2)c1
120	Cc1cccc(Nc2cc(N3CCCCC3)c3noc4c3c2C(=O)c2ccccc2-4)c1
113	CCOc1ccc(C2Nc3cccc4cccc(c34)N2)cc1OC
102	CC(C)CC(=O)N1CCN(c2cc(=O)n(C(C)C)c(=O)n2C(C)C)CC1
107	CCCCNc1nc(Nc2ccc(C)cc2)c2cnn(-c3ccccc3)c2n1
96	Brc1ccc(Nc2nc(-c3ccccc3)cs2)nc1
101	O=S(=O)(NCc1nc2cccnc2n1C1CC1)c1cccc(Cl)c1
101	O=C1Nc2cc(Cl)ccc2Oc2ccc(S(=O)(=O)N3CCCCC3)cc21
105	COCCNC(=O)CCc1nc(CS(=O)(=O)c2ccccc2)no1
110	COc1ccc(-n2c(=S)[nH]c3cc(C(=O)NCCc4ccc(OC)c(OC)c4)ccc3c2=O)cc1
105	COc1ccc(C2Nc3c(C)cc(C)cc3[C@H]3OCC[C@@H]23)cc1C (some centres undefined)
102	CCCc1ccc(S(=O)(=O)Nc2cccc(C(=O)N3CCCC(C(=O)NC4CCCC4)C3)c2)cc1 (centres undefined)
103	O=S(=O)(c1cc(-c2noc(C3CCC3)n2)cs1)N1CCN(c2ccccc2)CC1
104	C=CCN1CCn2c1nc(COC)cc2=O
101	O=C(c1ccc(F)cc1)N1CCN(Cc2cc(=O)n3nc(-c4ccccc4Cl)sc3n2)CC1
108	Cc1nnc(-c2coc(S(=O)(=O)N3CCC(Cc4ccccc4)CC3)c2)o1
103	Cc1cccn2c(=O)cc(COc3cccc(NC(=O)Nc4ccc(Cl)cc4)c3)nc12

Additional structures follow:
GIV Gai3 FP	Structure
100	Oc1c(Br)cc2oc3c(c2c1CNc1ccccc1Cl)CCCC3
123	Cc1cccc(Nc2cc(NC3CCCCC3)c3noc4c3c2C(=O)c2ccccc2-4)c1
92	CCOC(=O)c1ccccc1NC(=O)Cn1nc(C(=O)Nc2ccccc2)ccc1=O
108	Cc1ccc(CNc2ncnc3c2CCC3)o1
101	CCCCN(C)S(=O)(=O)c1cc(-c2nnc(C3CCC3)o2)co1
104	CC1(C)CC(=O)C2=C(C1)c1c(ccc3ccccc13)NC2c1ccc(-c2ccc([N+](=O)[O-])cc2)o1 (centres undefined)
104	O=C(Nc1ccccc1)c1cccc(-c2cc(NC3CCCCC3)ncn2)c1
116	CCCCCCCCCCOC1OC(COC(C)=O)C(OC(C)=O)C(OC(C)=O)C1NC(C)=O (centres undefined)
106	Cc1nc(-c2csc(S(=O)(=O)N3CCCC(C(=O)N4CCN(C)CC4)C3)c2)no1 (centres undefined)
170	Cc1csc(-c2cc(S(=O)(=O)Nc3ccc(S(N)(=O)=O)cc3)c(C)s2)n1
105	CC(=O)N1CC(C)(C)c2cc(S(=O)(=O)N3CCN(c4ccccc4)CC3)ccc21
97	COc1ccc2[nH]cc(CCNC(=O)c3ccc(-c4ccc5c(c4)CCN5C(C)=O)cc3)c2c1
99	COC(=O)c1ccc2c(=O)n(-c3cc(F)cc(F)c3)c(N3CCCCC3)nc2c1
102	CC(C)(C)C1CCC2(CC1)C(Nc1cccc(C(F)(F)F)c1)=NC(=S)N2c1ccc(O)cc1 (centres undefined)
103	Cc1ccc(-c2noc(-c3ccccc3S(=O)(=O)NC3CCCC3)n2)cc1
110	CCOC(=O)N1CCC(NC(=O)c2cnn3c(C(F)(F)F)cc(-c4ccc(C)cc4)nc23)CC1
105	O=c1c(S(=O)(=O)N2CCCC2)cccn1Cc1cccc(C(F)(F)F)c1
114	S=C1NC(c2ccccc2)=CC(c2ccccc2Cl)N1 (centres undefined)
96	O=C(c1ccc(F)cc1)N1CCN(Cc2cc(=O)n3nc(-c4ccccc4F)sc3n2)CC1
99	CC1CCC2(CC1)NCCN=C2NCc1ccc(C(F)(F)F)cc1 (centres undefined)
106	CN(C)c1cccc(C(=O)N2CCN(C(=O)c3cc4cc(Br)ccc4[nH]3)CC2)c1
106	COc1cc(NC(=O)/C=C/C(=O)O)cc(OC)c1
101	CCOC(=O)c1ccc(NC(=O)Cn2nc3ccc(-c4ccc(Cl)cc4)nn3c2=O)cc1
109	O=C(OCCN1C(=O)C2C3c4ccccc4C(c4ccccc43)C2C1=O)c1ccccc1[N+](=O)[O-] (centres undefined)
109	CCCC1(CC)NC(=S)N(c2ccc(Cl)cc2)N1 (centres undefined)
112	OC(c1ccccc1)(c1ccccc1)c1ccc2nc(-c3ccccc3)c(-c3ccccc3)nc2c1
106	CC(=O)Nc1nc(-c2ccc(Br)cc2)nc2c1c(=O)oc1ccccc12
104	CNc1nc(C(N)=O)c(NC(=O)C2=Cc3ccccc3OC2)s1
104	COc1ccc(CN2CCCC2c2cc(C(C)C)no2)cc1O (centres undefined)
104	Cc1ccccc1CNC(=O)C1(C)CCCN(C(=O)c2ccnn2C)C1 (centres undefined)
106	O=C(NCCc1c[nH]c2ccccc12)/C(=C/c1ccco1)NC(=O)c1cccs1
105	CC(=O)N1C(=S)NC(=O)/C1=C/c1cc2ccc(C)cc2nc1N1CCCCC1
106	O=C(NC1CCc2ccccc21)C1CCN(c2ncnc3c2oc2ccccc23)CC1 (centres undefined)
108	Cc1cc(C)cc(-n2c(CN3CCN(C(=O)NC4CCCC4)CC3)nc3cccnc32)c1
110	Nc1c(C(=O)Nc2ccc(S(N)(=O)=O)cc2)sc2nc3c(cc12)CCCC3
99	CCCOc1ccc(C2CC(=O)Nc3c2c(C)nn3-c2ccc3nnc(C)n3n2)cc1OC (centres undefined)
102	CNC(=O)C1OC2OC(C)(C)OC2C2OC(C)(C)OC12 (centres undefined)
119	CN1C(=O)/C(=C2/Sc3ccccc3N2CCCS(=O)(=O)O)SC1=S
114	CC1=CC(C)(C)Nc2ccc(OC(=O)CN3C(=O)C4CCCCC4C3=O)cc21 (centres undefined)
104	CCOc1ccc(S(=O)(=O)N2CCSC2c2ccc(OC)c(OC)c2)cc1 (centres undefined)
113	CN(C)c1ccc(C2Oc3ccccc3C3=C2C(c2ccc(Cl)cc2)n2ncnc2N3)cc1 (centres undefined)
103	CC12CCC(C(=O)N(c3ccc(Br)cc3)C1=O)C2(C)C (centres undefined)
116	CN(C)c1oc(-c2ccc(Cl)cc2Cl)nc1[P+](c1ccccc1)(c1ccccc1)c1ccccc1
98	COc1ccc(NC(=O)Nc2ccccc2CCc2nc3ccccc3[nH]2)cc1
99	CC1=C(C(=O)Nc2ccccc2Cl)C(c2ccc(C)cc2)NC(=O)N1 (centres undefined)
102	Cc1cccc(NC(=O)Nc2sc3c(c2-c2nc4ccccc4s2)CCCC3)c1
100	c1ccc(Nc2nc(NC3CCCC3)nc3c2cnn3-c2ccccc2)cc1
106	CCOC(=O)C1=C(N)OC2=C(C(=O)CCC2)C1c1ccc(C)s1 (centres undefined)
110	Cc1ccc(Cn2c(=O)c3c(ncn3Cc3ccccc3)n(C)c2=O)cc1
108	CSc1ccc(C2C3=C(CC(C)(C)CC3=O)Nc3ccc4ccccc4c32)cc1 (centres undefined)

(continued)
GIV Gai3 FP	Structure
114	COC(=O)C1=CN(Cc2ccc(OC)c(OC)c2)C=C(C(=O)OC)C1c1ccc(OCc2ccccc2)c(OC)c1
100	Cn1cc(CCN2CCN(S(=O)(=O)c3ccc4c(c3)CCC4)CC2)c2cccnc21
112	CN(C)c1ccc(C2Nc3ccccc3C(c3ccccc3)(c3ccccc3)O2)cc1 (centres undefined)
116	O=C(Nc1nc2ccccc2n1CCOc1ccccc1)c1cccc([N+](=O)[O-])c1
89	CC(=O)N1C(=S)NC(=O)/C1=C/c1cc2ccccc2nc1N1CCCCC1
106	CCC1=NN(C(=O)c2ccccc2C)C(O)(c2ccc(Br)cc2)C1 (centres undefined)
96	Cc1cc(NC(=O)c2cccc(-n3cnnc3)n2)ccc1NC(=O)c1cc2ccccc2o1
103	Cc1noc(C)c1S(=O)(=O)N1CCC(CC(=O)NCc2ccccn2)CC1
103	Cn1c(=O)n(Cc2ccccc2Cl)c(=O)c2cnc(-c3cccnc3)nc21
110	O=C(Nc1ccc2nc(SCC(=O)N3CCOCC3)sc2c1)c1ccccc1[N+](=O)[O-]
113	Cc1ccccc1-n1nc2c(c1NC(=O)c1ccc(S(=O)(=O)N3CCOCC3)cc1)CS(=O)(=O)C2
107	COc1ccc(N2C(=O)/C(=C/c3ccc(OC)c(OC)c3)N=C2c2ccc(Cl)cc2)c(OC)c1
102	Cc1nnc(-c2cccn2CC(=O)N2CCC(C)CC2)o1
122	CCOCCn1cnc2sc(C(=O)NCCN(CC)CC)c(C)c2c1=O
111	COc1ccccc1C1C=C(Nc2ccccc2)C(=O)N1c1ccccc1 (centres undefined)
97	COc1ccc(OC)c(NC(=O)N2CCN(c3nc4cc(Br)ccc4n4cccc34)CC2)c1
104	CCN(CC)S(=O)(=O)c1ccc(NC(=O)N2CCCC(C(=O)Nc3ccc(OC)cc3)C2)s1 (centres undefined)
112	CCC1=NN(C(=O)c2ccc(Cl)cc2)C(O)(c2ccc(Br)cc2)C1 (centres undefined)
100	COc1cc(NC(=O)c2cncc(-c3ccc(F)cc3)c2)cc(OC)c1
117	CN(C)c1ccc(C(C2=C(O)CC(C)(C)CC2=O)C2C(=O)CC(C)(C)CC2=O)cc1 (centres undefined)

Compounds from the list above that contain fluorine (13):
GIV Gai3 FP	Structure
100	O=C(Nc1ccc2c(c1)OCO2)c1nnc(C2CCN(S(=O)(=O)c3ccc(F)cc3F)CC2)s1
102	COc1ccc(CCn2c(-c3ccc(C4CCCCC4)cc3)csc2=Nc2cccc(C(F)(F)F)c2)cc1
103	Cc1nn(-c2nc3ccccc3o2)c2c1C(c1cc(F)cc(F)c1)CC(=O)N2 (centres undefined)
116	COc1ccccc1-n1c(CNC(=O)c2ccc(S(=O)(=O)N(C)C)cc2)nnc1SCC(=O)Nc1ccc(F)cc1
106	COc1cccc(C2=Nc3cccnc3N(CC(=O)Nc3ccc(F)cc3Cl)C(=O)C2)c1
101	O=C(c1ccc(F)cc1)N1CCN(Cc2cc(=O)n3nc(-c4ccccc4Cl)sc3n2)CC1
99	COC(=O)c1ccc2c(=O)n(-c3cc(F)cc(F)c3)c(N3CCCCC3)nc2c1
102	CC(C)(C)C1CCC2(CC1)C(Nc1cccc(C(F)(F)F)c1)=NC(=S)N2c1ccc(O)cc1 (centres undefined)
110	CCOC(=O)N1CCC(NC(=O)c2cnn3c(C(F)(F)F)cc(-c4ccc(C)cc4)nc23)CC1
105	O=c1c(S(=O)(=O)N2CCCC2)cccn1Cc1cccc(C(F)(F)F)c1
96	O=C(c1ccc(F)cc1)N1CCN(Cc2cc(=O)n3nc(-c4ccccc4F)sc3n2)CC1
99	CC1CCC2(CC1)NCCN=C2NCc1ccc(C(F)(F)F)cc1 (centres undefined)
100	COc1cc(NC(=O)c2cncc(-c3ccc(F)cc3)c2)cc(OC)c1
